Lassa entry inh = qHTS for Inhibitors of binding or entry into cells for Lassa Virus; Lassa virus pseudotype entry inhibition, cell reporter; control for the full effect not named in the record; Potency, µM (highest dose often 37.9 µM), for the others: at the top dose activity change, negative = inhibition, most hits filed as inhibitors; 300,000 tested, 1.2% active; AID 540256, 2011; active means well fitted inhibition curve with a large enough effect; inconclusive means small, poorly fitted or top-dose-only effect, or effect the other way; inactive means flat fitted curve, though single readings scatter; tested in HEK293 cells; further: on the % scale 0 is the no-effect control and ±100 the full control effect; nearly all actives have a fitted effect of over 50% in size; luciferase read-out
RE007 growth inh = qHTS Assay for Inhibitors of the HIV-1 protein Vpr; AID 651644, 2012; 360,000 tested, 0.21% active; Potency, µM (titrated, usually from 92.2 µM), without a hit: top-dose activity change, negative = less growth; S. pombe RE007 Vpr strain, BacTiter-Glo ATP luminescence, 24 h; control for the full effect not named in the record; active = well fitted falling curve with a large enough effect; inconclusive = small, poorly fitted or top-dose-only effect; inactive = no such curve, though single readings can be large or run the other way;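 further: on the % scale 0 is the no-effect control and ±100 the full control effect; nearly all actives have a fitted effect of over 50% in size; the assay follows cell death caused by Vpr and the record does not say whether a fall means rescue or toxicity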
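Fission yeast RE007 carrying one integrated HIV-1 vpr copy, seeded at OD 0.01 in PMG+AL medium with 23 nL pinned compound. Grown 24 h at 30 degrees; viability read by BacTiter-Glo luminescence after 5 min.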
Cruzain inh Det = qHTS Assay for Promiscuous and Specific Inhibitors of Cruzain (with detergent) | Potency, µM, inactives show max response, negative = inhibition, usual class: inhibitors | AID 1478, 2009 | purified cruzain, Z-FR-AMC fluorescence, 0.01% Triton | 200,000 tested, 0.43% active | Cruzipain (Trypanosoma cruzi), P25779; active means well fitted curve in the direction sought with a large enough effect; inconclusive means small, poorly fitted or top-dose-only effect, or another doubt; inactive means no such curve, though single readings can be large; an effect the other way counts as inactive or inconclusive;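 further: plate controls were neutral wells for no effect and buffer without enzyme for full effect; nearly all actives have a fitted effect of over 40% in size; top concentration of the series not given in the record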
Target sequence (P25779 123-467 limits assumed): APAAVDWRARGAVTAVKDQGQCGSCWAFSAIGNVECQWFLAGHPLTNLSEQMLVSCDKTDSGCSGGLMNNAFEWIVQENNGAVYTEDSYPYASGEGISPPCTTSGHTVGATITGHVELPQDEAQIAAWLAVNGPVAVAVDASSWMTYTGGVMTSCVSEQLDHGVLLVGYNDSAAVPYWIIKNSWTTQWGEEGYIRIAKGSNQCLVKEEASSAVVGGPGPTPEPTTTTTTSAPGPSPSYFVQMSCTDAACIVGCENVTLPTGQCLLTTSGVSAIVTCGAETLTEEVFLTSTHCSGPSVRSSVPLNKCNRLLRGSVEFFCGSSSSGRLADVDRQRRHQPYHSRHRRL
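Purified cruzain (1.5 nM final) was preincubated with compounds for 15 min at room temperature in 100 mM sodium acetate pH 5.5, 5 mM DTT, 0.01% Triton X-100. Reaction started with 2 uM Z-FR-AMC; AMC fluorescence change over 60 s gave activity.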
Marburg entry inh = qHTS for inhibitors of binding or entry into cells for Marburg Virus; 300,000 tested, 1.8% active; Potency, µM (highest dose often 37.8 µM), inactives show at the top dose activity change, negative = inhibition, hits mostly inhibitors; Marburg virus pseudotyped entry inhibition, cell reporter; control for the full effect not named in the record; about a third of the inactives were read at about 46 µM; active = well fitted inhibition curve with a large enough effect; inconclusive = small, poorly fitted or top-dose-only effect, or effect the other way; inactive = flat fitted curve, though single readings scatter; tested in HEK293 cells; about a fifth of its hits are not listed in these tables; further: on the % scale 0 is the no-effect control and ±100 the full control effect; luciferase read-out
NS1 inh = qHTS Assay for Inhibitors of Influenza NS1 Protein Function; S. cerevisiae slowed by influenza A NS1, growth recovery by OD600; Potency, µM (top dose mostly 46.1 µM), for the others: at the highest dose activity, positive = more growth; 270,000 tested, 0.4% active; further: actives are rising curves; nearly all actives have a fitted effect of over 50% in size
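Read-out: OD600 growth recovery of NS1-expressing budding yeast. Cells grown overnight at 30C in -URA glucose medium, washed, resuspended and diluted 1:100 in 2% galactose assay medium, pH 6.0. Same strain lacking NS1 served as positive control.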
Cruzain noTriton = qHTS Assay for Promiscuous and Specific Inhibitors of Cruzain (without detergent). Cruzipain (Trypanosoma cruzi), P25779. purified cruzain, Z-FR-AMC fluorescence, no detergent. Potency, µM, inactives show max response, negative = inhibition, most hits filed as inhibitors. 200,000 tested, 2.3% active. AID 1476, 2009; active means well fitted curve in the direction sought with a large enough effect; inconclusive means small, poorly fitted or top-dose-only effect, or another doubt; inactive means no such curve, though single readings can be large; an effect the other way counts as inactive or inconclusive;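 further: plate controls were enzyme without inhibitor for no effect and buffer without enzyme for full effect; nearly all actives have a fitted effect of over 40% in size; top concentration of the series not given in the record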
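Purified cruzain at 1.5 nM, pre-incubated 15 min with compound at room temperature in 100 mM sodium acetate pH 5.5, 5 mM DTT, 0.00005% Triton X-100. Reaction started with 2 uM Z-FR-AMC; AMC fluorescence increase over 60 s gives rate.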
SARS PLpro yeast = qHTS of Yeast-based Assay for SARS-CoV PLP; S. cerevisiae expressing SARS-CoV PLpro, growth rescue; control for the full effect not named in the record; Potency, µM (series often up to 32.9 µM), for the others: top-dose activity, positive = growth rescue; 330,000 tested, 0.19% active; AID 485353, 2010; further: 0% is about no effect; nearly all actives have a fitted effect of over 55% in size; growth read by luminescence after 48 h
StopGo reporter = High Throughput Screening for Foot and Mouth Disease Virus Antivirals; human cells with a luciferase reporter of 2A StopGo recoding; control for the full effect not named in the record; Potency, µM (titrated, usually from 57.9 µM), inactives show at the highest dose signal change, negative = less light; 410,000 tested, 1.2% active; AID 1159524, 2015; active = well fitted falling curve with a large enough effect; inconclusive = small, poorly fitted or top-dose-only effect; inactive = no such curve, though single readings can be large or run the other way; tested in HEK293T cells; further: on the % scale 0 is the no-effect control and ±100 the full control effect; nearly all actives have a fitted effect of over 45% in size; luciferase light after 4 h
Starred values were filed as active, the others as inactive; u = inconclusive; x = no result given; [ ] = dose if it differs, or a comment. Unless noted, the call rests on the fitted dose curve; in most records, active means well fitted rising curve with a large enough effect; inconclusive means small, poorly fitted or top-dose-only effect; inactive means no such curve, though single readings can be large or run the other way. Potency means the concentration at half of the fitted maximal effect.

Key to letters: A = Lassa entry inh; B = RE007 growth inh; C = Cruzain inh Det; D = Marburg entry inh; E = NS1 inh; F = Cruzain noTriton; G = SARS PLpro yeast; H = StopGo reporter
O=C(Nc1cccc(Cl)c1)Nc1cccc(C(=O)O)c1
  A = u | B = 0% | C = x | D = u | E = 2% | F = x | G = -2% | H = 14µM*
Cc1ccc(-c2ccc(/C=C3/NC(=O)NC3=O)o2)cc1[N+](=O)[O-]
  A = -17% | B = -2% | C = -12% | D = -12% | E = 25% | F = 10% | G = 3% | H = -28%
COc1n[nH]c2nncnc12
  A = -5% | B = -8% | C = 3.7% | D = 7% | E = 1% | F = -7% | G = 0% | H = -11%
COc1ccc(CN(C)S(=O)(=O)c2c(C)noc2C)cc1OC
  A = -11% | B = 10% | C = x | D = 18% | E = x | F = x | G = 5% | H = -15%
Cc1ccc(Nc2c3c(nc4ncnn24)CCC3)cc1
  A = -13% | B = 4% | C = -1.5% | D = -14% | E = -12% | F = -1% | G = 0% | H = 0%
O=C(O)c1ccc(CNC(=O)c2ccc3c(c2)C(=O)N(Cc2cccnc2)C3=O)cc1
  A = x | B = 14% | C = x | D = x | E = -6% | F = x | G = 5% | H = 0%
COc1ccc(S(=O)(=O)Nc2nc(C(F)(F)F)cs2)cc1
  A = -1% | B = 7% | C = -2.1% | D = 7% | E = -3% | F = -15% | G = 7% | H = 21%
O=C(NCc1ccc(Cl)cc1)c1nccnc1CO
  A = 7%[46.1 µM] | B = -8% | C = x | D = 20%[46.1 µM] | E = 6% | F = x | G = -3% | H = -4%
CN(c1ccccc1C(=O)Nc1cccc(Br)c1)S(=O)(=O)c1ccccc1
  A = x | B = -4% | C = x | D = x | E = -19% | F = x | G = 2% | H = -16%
Cc1cc(C)c(C#N)c(Sc2ccc(N)cc2)n1
  A = 5% | B = -5% | C = -4.9% | D = 37% | E = 5% | F = -8% | G = -1% | H = 8%
O=C(c1ccc(S(=O)(=O)c2ccccc2Cl)c([N+](=O)[O-])c1)N1CCN(Cc2ccccc2)CC1
  A = u | B = -7% | C = 0.1% | D = u | E = -16% | F = -7% | G = 7% | H = 11µM*
CCCC(C(=O)NC(C)(C)C)N(CCN1CCOCC1)C(=O)CNS(=O)(=O)c1ccccc1 (stereo unspecified)
  A = 19%[46.1 µM] | B = -12% | C = x | D = -10%[46.1 µM] | E = 3% | F = x | G = 1% | H = 10%
CN1CCN(C(=O)c2cc(-c3ccccc3)on2)CC1
  A = 10% | B = -1% | C = -1.2% | D = 7% | E = -4% | F = -18% | G = 0% | H = 9%
CCCC(=O)c1c(C)c2ccccc2n1C
  A = u | B = -9% | C = -6.2% | D = 1% | E = u | F = 9% | G = 7% | H = -4%
Cc1c(C(=O)N2CCC(C)CC2)c(S(=O)(=O)N(Cc2ccccc2)C(C)(C)C)c(C)n1C
  A = u | B = x | C = -2.3% | D = x | E = x | F = u | G = x | H = -13%
COC(=O)CSc1nc2cc(C)cc(C)c2cc1C#N
  A = u | B = -16% | C = -3.1% | D = 7% | E = -6% | F = -9% | G = 4% | H = 0%
CCCCc1ccc(NC(=O)c2ccc(N(C)S(C)(=O)=O)cc2)cc1
  A = -19% | B = -15% | C = x | D = u | E = 2% | F = x | G = -1% | H = u
CC(C)C(NS(=O)(=O)c1ccc2c(c1)oc(=O)n2C)C(=O)N1CCN(Cc2ccccc2)CC1 (stereo unspecified)
  A = x | B = 9% | C = u | D = 0% | E = -10% | F = u | G = -3% | H = -15%
c1ccc2c(-c3nnc4n3CCCCC4)cc(-c3ccncc3)nc2c1
  A = -4% | B = 13% | C = -5.2% | D = -13% | E = 6% | F = -4% | G = 19% | H = 2%
O=C(Nc1ccc2cn[nH]c2c1)c1ccc(Cl)c(S(=O)(=O)N2CCOCC2)c1
  A = 13% | B = 3% | C = -3.8% | D = u | E = 6% | F = u | G = 0% | H = -17%
CCC(C(=O)O)n1ccc2cc(S(=O)(=O)N3CCCCC3)ccc21 (stereo unspecified)
  A = -2%[46.1 µM] | B = x | C = -3.0% | D = 0%[46.1 µM] | E = x | F = -4% | G = x | H = -8%
COc1ccc(OCC(=O)NC(=O)c2ccccc2OC)c([N+](=O)[O-])c1
  A = 0% | B = 4% | C = x | D = -1%[46.1 µM] | E = x | F = x | G = -2% | H = -1%
O=C(NCCN1CCOCC1)c1ccc(NS(=O)(=O)c2cccc([N+](=O)[O-])c2)cc1
  A = -13% | B = 1% | C = x | D = 23% | E = x | F = x | G = 2% | H = -7%
O=C1CC(/C=C/c2ccncc2)=Nc2ccccc2N1
  A = 1%[46.1 µM] | B = -8% | C = x | D = u | E = -3% | F = x | G = -10% | H = 1%
Cc1cccc(C2=NN(c3ccc(Br)cc3)[C@@H](C(=O)N3CCOC3=O)[C@@H]2c2ccc([N+](=O)[O-])cc2)c1
  A = x | B = 2% | C = 1.3% | D = x | E = x | F = 6.3µM* | G = 5% | H = -19%
CC(C)(C)C1CCc2c(sc(NC(=O)c3ccncc3)c2C(=O)Nc2ccccc2Cl)C1 (stereo unspecified)
  A = 25%[46.1 µM] | B = x | C = -0.9% | D = 22%[46.1 µM] | E = x | F = 6% | G = x | H = -21%
COc1ccc(Cc2nnc(SCC(=O)c3ccc4c(c3)NC(=O)CO4)o2)cc1
  A = 4% | B = -4% | C = x | D = 1% | E = x | F = x | G = 0% | H = -8%
NC(=O)CC(NC(=O)c1ccccc1)c1ccc(NC2CCCCCCC2)c([N+](=O)[O-])c1 (stereo unspecified)
  A = x | B = 12% | C = x | D = x | E = 15% | F = x | G = -1% | H = u
O=C(CC(NC(=O)OCc1ccccc1)C(=O)O)OCc1ccccc1 (stereo unspecified)
  A = x | B = 1% | C = x | D = x | E = 5% | F = x | G = -2% | H = 14%
COc1ccc(-c2nnn(CC(=O)N(CCCO)C(C(=O)NC3CCCC3)c3ccncc3)n2)cc1 (stereo unspecified)
  A = 11%[46.1 µM] | B = -3% | C = x | D = u | E = x | F = x | G = 6% | H = 31%[activator]
COc1ccc(C(c2c(C)[nH]n(-c3ccccc3)c2=O)c2c(C)[nH]n(-c3ccccc3)c2=O)cc1OC
  A = 13% | B = 7% | C = -9.2% | D = -1% | E = -7% | F = u | G = 13µM* | H = -13%
O=c1cc(CSCc2ccc(Cl)cc2)[nH]c(=O)[nH]1
  A = 9% | B = -6% | C = x | D = -16% | E = 5% | F = x | G = 1% | H = -5%
COc1ccc(C(=O)n2nc(-c3ccc(Cl)cc3)nc2N)cc1OC
  A = 8% | B = -7% | C = 0.4% | D = 2% | E = u | F = -17% | G = 2% | H = -25%
COc1c(C(=O)Nc2ccc(CN3CCOCC3)cc2)cc2ccccc2c1Br
  A = -24% | B = 0% | C = x | D = 11% | E = -36% | F = x | G = 2% | H = u
CN(/N=C/Cc1nnnn1-c1ccc(Cl)cc1)c1ccccc1
  A = x | B = -10% | C = x | D = x | E = 5% | F = x | G = 0% | H = 45%[activator]
COc1cccc(N2CC(O)=C(c3nc4ccccc4s3)C2=N)c1
  A = x | B = -10% | C = x | D = x | E = -3% | F = x | G = 1% | H = 67%[activator]
COc1cccc(OC)c1C(=O)Nc1cc(C)nn1-c1nc2ccccc2[nH]1
  A = 11µM* | B = -12% | C = x | D = u | E = 1% | F = x | G = 23% | H = -25%
C#CCOc1ccc(Br)cc1/C=N/O
  A = -12% | B = 15% | C = -2.1% | D = u | E = 1% | F = u | G = -2% | H = -9%
Cc1ccc(S(=O)(=O)N2CCC[C@H]2C(=O)OC(C)C(=O)Nc2ncc(Cl)cc2Cl)cc1 (stereo partly specified)
  A = -13% | B = 9% | C = 2.6% | D = -10% | E = -9% | F = 7% | G = 24% | H = 11%
CCOC(=O)[C@@H]1CCNC[C@@H]1c1ccccc1
  A = 10% | B = -8% | C = 4.0% | D = 6% | E = 3% | F = -3% | G = -5% | H = 0%
Cc1ccc(OCCCCn2ccnc2)c([N+](=O)[O-])c1
  A = x | B = -13% | C = x | D = x | E = 0% | F = x | G = 1% | H = 2%
COC(=O)c1ccccc1N=Cc1c(O)[nH]c(=S)[nH]c1=O
  A = 7% | B = 30% | C = x | D = 27%[46.1 µM] | E = x | F = x | G = 1% | H = 8%
COc1ccccc1NC(=O)CSc1ncn[nH]1
  A = 1% | B = 10% | C = 5.7% | D = 9% | E = -6% | F = -10% | G = 5% | H = 4%
CCCn1nc(C(=O)N2CC(=O)Nc3ccccc32)c2ccccc2c1=O
  A = -11% | B = 15% | C = 1.7% | D = u | E = 3% | F = 2% | G = 3% | H = 5%
Cc1cccc(C2CC(c3ccc(Br)cc3)Nc3nc(N)nn32)c1 (stereo unspecified)
  A = x | B = 8% | C = -2.1% | D = x | E = 5% | F = -2% | G = -2% | H = -27%
O=C(Nc1ccccc1)Nc1cccc(C(F)(F)F)c1
  A = -15% | B = 13% | C = x | D = -6%[46.1 µM] | E = x | F = x | G = -5% | H = 5%
COc1ccc(OC)c(NC(=O)CCc2c(C)nc3c(c(C)nn3C(C)(C)C)c2C)c1
  A = 0%[46.1 µM] | B = x | C = -12% | D = u | E = x | F = u | G = x | H = -13%

Entries of single compounds as entered above. Values in the order: Lassa entry inh | RE007 growth inh | Cruzain inh Det | Marburg entry inh | NS1 inh | Cruzain noTriton | SARS PLpro yeast | StopGo reporter
COc1ccc(OC)c(NC(=O)CCc2c(C)nc3c(c(C)nn3C(C)(C)C)c2C)c1 in the list: 0%[46.1 µM] | x | -12% | u | x | u | x | -13%
O=C(Nc1ccccc1)Nc1cccc(C(F)(F)F)c1 in the list: -15% | 13% | x | -6%[46.1 µM] | x | x | -5% | 5%
Cc1ccc(S(=O)(=O)N2CCC[C@H]2C(=O)OC(C)C(=O)Nc2ncc(Cl)cc2Cl)cc1 (stereo partly specified) in the list: -13% | 9% | 2.6% | -10% | -9% | 7% | 24% | 11%
